Screening data: PubChem BioAssay, Center for Chemical Genomics, University of Michigan
CDC25B CDK2 inh = human CDC25B-CDK2/CyclinA binding inhibition. P30305+P24941. HTRF CDC25B-CDK2/CyclinA binding, anti-His/anti-Flag; stronger effect = higher value. z-score (concentration not given with the values). hit rate 0.72% among 94,000. AID 1259370;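 note: score is relative to mean and SD of negative controls; strong numbers were not always called active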
HIV TAR-Tat = HIV-1 TAR-Tat binding disruption | HIV-1 TAR RNA, Tat peptide displacement FRET; stronger effect = higher value | z-score (concentration not given with the values) | hit rate 0.6% among 100,000;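 note: score is relative to mean and SD of negative controls; some compounds called inactive have numbers as strong as hits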
Numbers without * were called inactive; nt = no result given; & = joins results of further samples.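 Rule for the calls: active = z-score from 3 up in half or more of its runs; inactive = the rest.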

SMILES | CDC25B CDK2 inh | HIV TAR-Tat
CC(=O)N1N=C2C3CCN(CC3)C2C1c1cccc(F)c1 (centres undefined) | 0.6 | 3.94
Cc1ccc(CN2CCCN(Cc3ccc(F)cc3)S2(=O)=O)cc1 | nt | -1.2
Cc1c(C(=O)N2CCC3(CC2)OCCO3)oc2ccc(S(=O)(=O)N(C)C3CCCCC3)cc12 | 1.32 | nt
COc1ccc(CCNC(=O)CN2C(=O)C(C)N=C(c3ccccc3)c3ccccc32)cc1OC (centres undefined) | -1.55 | nt
CC1c2cccn2-c2ccccc2CN1C(=O)Nc1cccc(Cl)c1 (centres undefined) | nt | -0.56
CCCCOc1ccc(-c2ncnc3c(C#N)c4ccccn4c23)cc1 | -1.28 | 0.67
COc1c2c(cc3c1OCO3)CCN(C)C2 | nt | 2.65
Cc1ccccc1CN1CCCN(Cc2ccc(F)cc2)S1(=O)=O | nt | 0.82
CC(C)[C@H]1C(=O)O[C@@H]2CCN3CC=C(COC(=O)[C@](C)(O)[C@]1(C)O)[C@H]23 | nt | 1.25
Cn1cc(C2N3CC4(C)CN2CC(C)(C3)C4)c2ccccc21 (centres undefined) | 9.04 | nt
O=c1[nH]c(=S)[nH]c(O)c1/C=C1\C=CC=N1 | -0.58 | nt
O=[N+]([O-])/C=C/c1cc(C(F)(F)F)cc(C(F)(F)F)c1 | -1.64 | nt
Brc1cccc(C2CC(c3cccnc3)Nc3nnnn32)c1 (centres undefined) | -0.8 | nt
O=S1(=O)N(Cc2ccccc2)CCCN1Cc1cccc(Cl)c1 | nt | 1.06
Cn1c(C(=O)N2CCC3(CC2)OCCO3)cc2c(=O)n(C)c3ccccc3c21 | -0.83 | nt
CC[C@@H]1C=CC=CC[C@H](C)[C@@H](O)[C@@H](C)C(=O)[C@H](C)[C@@H](O)[C@H](C)C(=O)[C@H](C)[C@@H](O)[C@H](C)C=CC(=O)O[C@H]2[C@@H](C)[C@@H](CC1)O[C@@]1(CC[C@@H](C)[C@@H](C[C@H](C)O)O1)[C@@H]2C | nt | 0.57
Nc1nc(N)nc(N)n1 (tested in a mixture with another compound) | 0.36 | nt
CC(C)(C)n1ncc(Cl)c(Cl)c1=O | 0.88 | 0.99
CN(C)C(=S)SSC(=S)N(C)C | nt | 0.84
Cc1[nH]c2ccccc2c1C(=O)C(=O)N1CC2CC(C1)c1cccc(=O)n1C2 (centres undefined) | -0.73 | 0.54
COC(CSc1nc2cccc(F)c2c(=O)n1-c1ccc(C)c(C)c1)OC | -1.33 | nt
C=CCOC(=O)C1=C(C)OC(N)=C(C#N)C12C(=O)Nc1ccccc12 (centres undefined) | -1.26 | nt
Cc1ccnc(-n2c(C)nc3ccccc3c2=O)c1 | 0.39 | -0.37
OCC(Cc1cnc[nH]1)NCc1ccccc1 (centres undefined) | -3.22 | nt
C[C@]12CCC(=O)C=C1CCc1ccc(O)cc12 | nt | 0.73
CC1(C)OC2OC(C(=O)Nc3ccc4c(C(F)(F)F)cc(=O)oc4c3)C3OC(C)(C)OC3C2O1 (centres undefined) | -0.19 | nt
CN(C)C(=O)Oc1c(-c2ccccc2)cn(Cc2ccccc2)c(=O)c1-c1ccccc1 | 0.4 | nt
CCOC(=O)C1=C(N)OC2=C(C(=O)CC(C)(C)C2)C12C(=O)N(CC(=O)OC)c1ccccc12 (centres undefined) | 0.23 | nt
CC(=O)Oc1ccc(Cl)c2cccnc12 | nt | 2.17
CCOc1cc(C2SCC(=O)Nc3c2c(C)nn3-c2nc(C)cc(C)n2)ccc1O (centres undefined) | -1.32 | 0.3

Structures above with a Cl atom:
SMILES | CDC25B CDK2 inh | HIV TAR-Tat
CC1c2cccn2-c2ccccc2CN1C(=O)Nc1cccc(Cl)c1 (centres undefined) | nt | -0.56
O=S1(=O)N(Cc2ccccc2)CCCN1Cc1cccc(Cl)c1 | nt | 1.06
CC(C)(C)n1ncc(Cl)c(Cl)c1=O | 0.88 | 0.99
CC(=O)Oc1ccc(Cl)c2cccnc12 | nt | 2.17

(next part)
SMILES | CDC25B CDK2 inh | HIV TAR-Tat
CCCC(C)n1[nH]c(=O)c2c1NC(=O)CSC2c1ccc2c(c1)OCO2 (centres undefined) | -1.64 | 3.6
CSC(=NCc1ccccc1Cl)N/C(N)=N\[N+](=O)[O-] | -0.44 | nt
Cn1cc(C(=O)N2CCC3(CC2)OCCO3)c2c3ccccc3n(C)c2c1=O | -0.69 | nt
O=c1c2ccccc2nc(/C=C/c2ccccc2)n1-c1ccc(F)cc1 | -1.62 | nt
Cc1ccccc1C1SCC(=O)Nc2c1c(C)nn2-c1ccccc1C (centres undefined) | -1.06 | -0.32
CC(=O)O[C@H]1CC[C@@]2(C)C(=CCC3C2CC[C@]2(C)C(=O)CCC32)C1 (some centres undefined) | nt | 0.38
c1ccc(COc2cnc(N3CCNCC3)nc2)cc1 | -13.6 | nt
CC12CCC3C(CC[C@H]4C[C@H](OS(=O)(=O)O)CCC34C)C1CCC2=O (some centres undefined) | 0 | nt
Clc1cccc(CCNCc2cccnc2)c1 | 1.38 | 0.49
N/C(=N\[N+](=O)[O-])NNc1ccccc1 | -1.6 | nt
N#CC1=C(N)Oc2c(c(=O)oc3ccccc23)C1c1ccc(OC(=O)c2ccco2)cc1 (centres undefined) | -0.37 | nt
Cc1ccc(-c2nc(N(C)C3CCN(C)CC3)c3ccccc3n2)cc1 | 0.85 | -1.67
NCc1cc(=O)[nH]o1 | -1.19 | nt
Oc1ccc(Br)cc1CN1CCN(Cc2ccc(F)cc2)CC1 | 2.71 | 1.27
O[C@H]1[C@H]2[C@H](O)CCCN2C[C@H]1O | nt | 1.13
Cc1cccc(C)c1-n1nnnc1C1(N2CCOCC2)CCCCC1 | nt | 0.57
c1ccc(CCNCc2ccc3c(c2)OCO3)cc1 | -0.22 | 0.83
Cc1ccc(-n2nc(C)c3c2NC(=O)CSC3c2ccc(O)cc2)cc1Cl (centres undefined) | -0.87 | 2.21
O=S1(=O)N(Cc2ccc(F)cc2)CCCN1Cc1cccc(Cl)c1 | nt | -0.36
CCCCCCC(C)(C)c1cc(O)c2c(c1)OC(C)(C)[C@@H]1CCC(CO)CC21 (some centres undefined) | nt | 1.03
CN1CCN(c2cnnc3c(Cl)cccc23)CC1 | nt | 0.67
NCC(N)C(=O)c1ccccc1 (centres undefined) | nt | 1.15
c1ccc(OC[C@@H]2CCCN3CCCCC23)nc1 (some centres undefined) | -1.17 | -5.3
Cn1nnnc1/N=N\c1nnnn1C | -2.15 | nt
COc1ccccc1OCCCn1cc(C(=O)c2cccs2)c2ccccc21 | -0.38 | 0.89
CC1(C)SC2C(N)C(=O)N2C1C(=O)O (centres undefined) | 0.92 | 0.52
Cc1nc2c(-c3ccc(F)cc3)c(C)nn2c(C)c1CCC(=O)N1CCC2(CC1)OCCO2 | -0.49 | nt
N#Cc1no[n+]([O-])c1/C(N)=N/N=C(/N)c1c(C#N)no[n+]1[O-] | -1.88 | nt
Cc1[nH]nc2c1C(c1ccc(Br)cc1)SCC(=O)N2 (centres undefined) | -1.11 | 1.4
CCC(C)C(=O)O[C@H]1[C@H](O)C2C(CN3CC(C)CCC3[C@@]2(C)O)C2C[C@]34O[C@]5(O)C(OC(=O)C(C)(O)CC)CC[C@@]3(C)C5C(OC(C)=O)[C@@H](OC(C)=O)C4[C@@]21O (some centres undefined) | nt | -0.19
Cc1ccc2[nH]cc(C(O)CN3CCCCC3)c2c1 (centres undefined) | -2.22 | 0.18
COc1ccc2c(c1)C13CCCCC1C(C2)N(C)CC3 (centres undefined) | -1.75 | nt
CC(C)C12CN3CN(C1)CC(C(C)C)(C3)C2O (centres undefined) | -1.38 | -0.48
O=C1NC(=O)C(=Cc2ccc(-c3ccc([N+](=O)[O-])cc3)o2)C(=O)N1 | -2.46 | nt
NC(=O)OCCCc1ccccc1 | nt | -1.53
Fc1c(F)c2c(c(F)c1Cl)Oc1ccccc1O2 | -1.49 | nt
CCOC(=O)C1=C(C)N(C)C2(C)CC1c1ccccc1O2 (centres undefined) | -1.39 | nt
CCOP(=S)(OCC)Oc1cc(C)nc(C(C)C)n1 | nt | 1.12
CCC1c2cccn2-c2ccccc2CN1C(=O)Nc1ccc(Cl)cc1 (centres undefined) | nt | 0.45
O=C(NC1CCCC1)N1Cc2ccccc2-n2cccc2C1c1ccc(F)cc1 (centres undefined) | nt | -0.09
CN1CCN(C(=O)Cc2ccc(NC3=NC4CS(=O)(=O)CC4S3)cc2)CC1 (centres undefined) | -0.32 | nt
CN[C@@H]1C[C@@H](c2ccc(Cl)c(Cl)c2)c2ccccc21 | -1.72 | -0.45
CC1=NN=C(c2ccc(N)cc2)c2cc3c(cc2C1)OCO3 | -0.53 | nt
CN1CC[C@]2(Cl)CCCC[C@@H]2C1 | -1.33 | nt
CCCCCCC(C)(C)c1ccc([C@H]2CCC[C@@H](O)C2)c(O)c1 | nt | 0.49&0.93
Cc1c(C(=O)N2CCC3(CC2)OCCO3)sc2ncnc(N3CCN(c4ccccn4)CC3)c12 | -0.1 | nt
Cc1ccc2c(c1)C(O)(C(F)(F)F)C(=O)O2 (centres undefined) | -1.77 | nt
Cc1ccc(-n2nc(C)c3c2NC(=O)CSC3c2ccc(F)cc2)cc1 (centres undefined) | -1.84 | 1.03
CC(C)C1c2cccn2-c2ccccc2CN1C(=O)Nc1ccccc1Cl (centres undefined) | nt | -1.4
CCNC(=O)C[C@@H]1N=C(c2ccc(Cl)cc2)c2cc(OC)ccc2-n2c(C)nnc21 | nt | -0.35

Further structures:
SMILES | CDC25B CDK2 inh | HIV TAR-Tat
COc1nc(NC(C)C)nc(NC(C)C)n1 | nt | -0.86
Cc1ccsc1C=C(C#N)C#N | 0.56 | nt
CN1CCC(c2c[nH]c3ccc(O)cc23)CC1 | -2.62 | nt
CCOC(=O)c1cc(C(C)(C)C)nc(OC(=O)N(C)C)c1C#N | -1 | nt
CC[C@@]1(O)C(=O)OCc2c1cc1n(c2=O)-c2cc3ccccc3nc2C1 | nt | 2.26
COc1ccc(OC)c([N+](=O)[O-])c1/C=C/[N+](=O)[O-] | -1.87 | nt
COC(=O)c1nc(-c2ccc(C)cc2)sc1[P+](c1ccccc1)(c1ccccc1)c1ccccc1 | -1.49 | nt
CN(C)c1ccc(C2c3cccn3-c3ccccc3CN2C(=O)NCc2ccco2)cc1 (centres undefined) | nt | 1.57
OC(CN1CCC(c2c[nH]c3ccccc23)CC1)C(F)(F)F (centres undefined) | -1.58 | nt
Cc1cc(OC(=O)N(C)C)nc(SCC(=O)C(C)(C)C)n1 | -1.89 | nt
Cn1c(=O)c2c(ncn2CCCl)n(C)c1=O | nt | 1.58
FC(F)(F)c1nc2cccnc2n1C1CCNCC1 | nt | 1.21
CCOc1ccc(C2SCC(=O)Nc3c2c(C)nn3-c2nc(C)cc(C)n2)cc1 (centres undefined) | -1.65 | -1.18
C(#CCN1CCCCC1)COC/C=C/c1ccccc1 | -1.77 | nt
Cc1ccccc1C(O)(Cc1ccccc1)C1CN2CCC1CC2 (centres undefined) | -1.74 | -0.37
Clc1ccc(CNC2CN3CCC2CC3)cc1 (centres undefined) | 0.64 | 0.98
Fc1ccc(CCNCc2cccnc2)cc1 | -0.88 | 2.39
CNCCc1c[nH]c2ccccc12 | -0.91 | nt
CCCC(C)n1[nH]c(=O)c2c1NC(=O)CSC2c1ccc(Br)cc1 (centres undefined) | -2.23 | 0.72
Cc1ccc(C2SCC(=O)Nc3c2c(C)nn3-c2nc3ccccc3s2)cc1 (centres undefined) | -0.38 | -0.06
Cc1ccc(C2SCC(=O)Nc3c2c(=O)[nH]n3C2CCOC(C)(C)C2)cc1 (centres undefined) | -0.8 | 2.88
c1ccc2c(CNC3C4CC5CC(C4)CC3C5)c[nH]c2c1 (centres undefined) | -1.93 | nt
O=C1CCN(C(=O)c2ccco2)CC1 | 1.17 | 0.35
O=C1C2CCN(CC2)C1Cc1ccco1 (centres undefined) | 11.9* | nt
N#Cc1c(Cl)cccc1Cl | nt | -1.31
COc1ccccc1CC(=O)c1cn(CCC2CCCCC2)c2ccccc12 | nt | 0.8
CCC(C)n1[nH]c(=O)c2c1NC(=O)CSC2c1ccc(F)cc1 (centres undefined) | 0.79 | 2.07
Cc1nn(-c2ccc(F)cc2)c2c1C(c1cc(F)cc(F)c1)SCC(=O)N2 (centres undefined) | -0.4 | 0.74
Cc1cc(C)nc(-n2nc(C)c3c2NC(=O)CSC3c2ccc(Br)cc2)n1 (centres undefined) | 0.11 | 1.06
CNC(=O)O/N=C(\c1cccs1)C1CC1 | -1 | nt

Sorted by molar mass (largest number first): some entries from above.
SMILES | CDC25B CDK2 inh | HIV TAR-Tat
Cc1ccc(C2SCC(=O)Nc3c2c(=O)[nH]n3C2CCOC(C)(C)C2)cc1 (centres undefined) | -0.8 | 2.88
O=C1C2CCN(CC2)C1Cc1ccco1 (centres undefined) | 11.9* | nt
O=C1CCN(C(=O)c2ccco2)CC1 | 1.17 | 0.35
N#Cc1c(Cl)cccc1Cl | nt | -1.31

Grouped by structure, the compounds so far with a CF3 group.
SMILES | CDC25B CDK2 inh | HIV TAR-Tat
O=[N+]([O-])/C=C/c1cc(C(F)(F)F)cc(C(F)(F)F)c1 | -1.64 | nt
CC1(C)OC2OC(C(=O)Nc3ccc4c(C(F)(F)F)cc(=O)oc4c3)C3OC(C)(C)OC3C2O1 (centres undefined) | -0.19 | nt
Cc1ccc2c(c1)C(O)(C(F)(F)F)C(=O)O2 (centres undefined) | -1.77 | nt
OC(CN1CCC(c2c[nH]c3ccccc23)CC1)C(F)(F)F (centres undefined) | -1.58 | nt
FC(F)(F)c1nc2cccnc2n1C1CCNCC1 | nt | 1.21

Next results.
SMILES | CDC25B CDK2 inh | HIV TAR-Tat
O=C(O)c1nn(Cc2ccc(Cl)cc2Cl)c2ccccc12 | 2.01 | nt
C[C@]12CC[C@H](O)C[C@H]1CCC1C2CC[C@]2(C)[C@@H](C3=CC(=O)OC3)[C@@H](O)C[C@]12O (some centres undefined) | nt | -0.05
O=S1(=O)N(Cc2cccc(F)c2)CCCN1Cc1ccccc1F | nt | 0.55
COCCn1cc(C(=O)O)c2ccccc21 | -1.83 | 1.17

This is a subset; the hit share may differ from the screen's.
